# Sa growth inh = S. aureus growth inhibition at 42 and 30 °C, primary screen, LtaS inhibitor project, RN4220, two temperatures; OD600, 20 h, 42 °C; stronger effect = lower value; relative growth, % (no concentration beside the values); 170,000 tested, 0.53% active;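 active means growth at 42 °C up to 50% and 20 or more points under that at 30 °C, or under 10% at both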;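 further: 300 nL library stock went into each well; scaled to the means of positive and negative controls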
# GIV Gai3 FP = inhibitors of GIV peptide binding to Galpha-i3, primary screen, biochemical, fluorescence polarization, FITC-GIV GBA peptide, rat Galphai3 | percent of control (FP), % (no concentration beside the values) | 90 min; stronger effect = lower value; scaled: aluminum fluoride 0%, vehicle 100% | 210,000 tested, 0.42% active | Guanine nucleotide-binding protein G(i) subunit alpha-3 (Rattus norvegicus), P08753 | AID 1224905, 2016;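 active means replicate mean at 85% of control or lower, very high polarization wells dropped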;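 further: wells of about 15 µL received 100 nL stock; the first replicate is given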
# Target sequence (P08753 whole entry, looked up): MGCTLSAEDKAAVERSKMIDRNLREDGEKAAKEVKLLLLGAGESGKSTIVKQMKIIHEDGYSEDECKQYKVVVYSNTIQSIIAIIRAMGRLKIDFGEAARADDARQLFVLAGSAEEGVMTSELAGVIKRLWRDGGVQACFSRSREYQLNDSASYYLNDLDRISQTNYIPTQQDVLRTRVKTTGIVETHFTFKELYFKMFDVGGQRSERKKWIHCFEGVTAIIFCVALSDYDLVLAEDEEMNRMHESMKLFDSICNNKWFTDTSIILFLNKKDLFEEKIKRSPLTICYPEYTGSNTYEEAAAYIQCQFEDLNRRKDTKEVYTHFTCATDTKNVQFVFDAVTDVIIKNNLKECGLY
# HCMV UL50-53 inh = inhibitors of HCMV UL50-UL53 interaction, biochemical, HTRF. normalized percent inhibition. inhibition, % (no concentration beside the values). 190,000 tested, 0.15% active;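 active means both replicates at 50% or more, plus weaker picks with an unusually low signal ratio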;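 further: stock transfer was 100 nL into about 20 µL; 0% = negative control wells and 100% = wells with untagged competitor protein; inactives centre near -12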
# Sa growth inh second temp = second read-out of Sa growth inh, no call of its own (marks repeat the call); relative growth, %; measured here: growth at 30 °C;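 optical density after 20 h as mean of two plates; 100% = untreated growth and lower means inhibition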
# * = called active by the depositor; / = no result given; & = joins results of further samples. No enrichment for hits. About 0.82% of those tested had a hit in this group.
SMILES,Sa growth inh,Sa growth inh second temp,GIV Gai3 FP,HCMV UL50-53 inh
O=C(NCCc1c[nH]c2ccccc12)c1ccc(F)cc1F,100,86,/,-21
CCOC(=O)c1cnc2c(C)c(Cl)ccc2c1Nc1cc(C)ccc1OC,92,92,98,/
O=C(NCCc1ccccc1)/C(=N\O)c1ccccc1,97,93,98,-4
COc1ccc(N2CCN(C3c4ccccc4CC3NS(=O)(=O)c3ccccc3)CC2)cc1 (configuration not stated),92,94,/,-13
CC1(C)CC(=O)C2=C(C1)OC(N)=C(C#N)C2c1ccccc1OCc1ccccc1Cl (configuration not stated),/,/,103,-11
CCCCOC(=O)c1c(C)oc2c1cc(NS(=O)(=O)c1cc(OC)ccc1OC)c1ccccc12,89,84,99,-11
Cc1nn(-c2ccc(Cl)cc2)c2sc(C(=O)NCCCN3CCCC3=O)cc12,108,97,/,8
Cc1ccc(NCc2nc3ccccc3n2C)cc1,96,85,108,-7
COC(=O)c1ccc(NS(=O)(=O)N(C)C)cc1,106,101,135,-8
COC(=O)c1ccc2c(c1)sc(=NC(=O)c1ccc(S(=O)(=O)N3CCCCC3C)cc1)n2C (configuration not stated),107,92,101,/
CCOc1cc(C(=O)Nc2cc(-c3nc4ccc(C)cc4o3)ccc2Cl)cc(OCC)c1OCC,/,/,99,-11
O=c1cc(CNc2ccc(S(=O)(=O)N3CCCC3)cc2)c2cc3c(cc2o1)CCC3,109,102,/,5
COc1cccc2sc(NC(=O)c3ccc(S(=O)(=O)N4CCC(C)CC4)cc3)nc12,112,87,98,/
COc1ccccc1NC(=O)NC1(C(=O)N2CCCCC2)CCCCC1,110,79,103,-16
COC(=O)c1cccc(N=C2N=C(N)c3ccccc32)c1,73,77,103,/
CNC(=O)N1CCc2cc(S(=O)(=O)N3CCc4ccccc43)ccc21,/,/,106,7
Cc1ccc(NC(=O)c2cnc(SCC(=O)N3CCCc4ccccc43)n(C)c2=O)cc1C,133,85,90,/
CCC(C(=O)NCc1ccc2c(c1)CCN2C(=O)c1ccc(F)cc1)c1ccccc1 (configuration not stated),113,85,103,/
CCOc1cc(C(=O)Nc2ccncc2)cc(OCC)c1OCC,104,88,102,-22
Cc1ccc(C)c(N2CCN(C(=O)CC(C)CC3=NS(=O)(=O)c4ccccc4N3)CC2)c1 (configuration not stated),/,/,103,-9
CCN(Cc1ccccc1)C(=O)CCS(=O)(=O)c1ccc2c(c1)CCN2C(C)=O,107,88,103,-20
Cc1ccc(-c2nc3c(s2)CN(C(=O)C2CC2)CC3)cc1,/,/,98,-30
CCCCCCCCc1ccc(-c2ccc(C(=O)Nc3ccc(O)c4c3C(=O)c3ccccc3C4=O)cc2)cc1,/,/,110,-6
Cc1ccc(SCC(=O)N2CC(C)CC(C)C2)cc1 (configuration not stated),94,96,107,-5
O=C(CC(c1ccccc1)c1ccccc1)NCc1ccccc1,99,104,/,2
O=C(Nc1ccc(Cl)c(-c2nc3ccccc3o2)c1)c1ccc(-c2cccc([N+](=O)[O-])c2)o1,93,86,102,-28
O=C(COc1ccc(Cl)cc1Cl)Nc1ccc2nc3n(c(=O)c2c1)CCCC3,89,84,98,-29
CCSc1nnc2c(n1)OC(c1cc3c(cc1[N+](=O)[O-])OCO3)Nc1ccccc1-2 (configuration not stated),/,/,101,-89
CC1CCCN(C(=O)CSc2nc3ccccc3nc2-c2ccccc2)C1 (configuration not stated),106,96,/,-12
CSc1nc2ccsc2c(=O)n1-c1ccccc1,/,/,101,6
COc1ccc(CN2CC(C(=O)NCCN3CCN(c4ccccc4F)CC3)CC2=O)cc1 (configuration not stated),115,85,101,/
CCN(CC)C(=O)NC1CCCCCC1,99,94,103,-26
CCN(C(=O)CCS(=O)(=O)c1cc2c(cc1C)NC(=O)CO2)c1cccc(C)c1,116,84,103,/
CCOC(=O)N1CCN(C(=O)COC(=O)c2ccc3c(c2)NC(=O)CS3)CC1,75,92,/,-29
COc1ccc(-c2nc3scc(CCN)n3n2)cc1,103,87,102,-22
CCn1c(=O)c2cc(C(=O)Nc3cc(OC)c(OC)c(OC)c3)sc2c2ccccc21,89,55,104,-23
COc1ccc(-c2nn(C)c3sc(C(=O)N(C)C4CCCCC4)cc23)cc1OC,/,/,96,-24
CCOC(=O)c1cnc(SCC(=O)Nc2ccc(C)cc2Cl)nc1N,94,94,102,/
O=C(N=Nc1c(O)n(Cc2ccccc2)c2ccccc12)c1ccccc1O,111,74,97,-21
COc1ccc(NC(=O)Cn2c(C(F)(F)F)nc3ccccc32)cc1,/,/,100,-13
COc1ccc(C2(C(=O)NC3CCCCC3)CCCC2)cc1OC,105,92,/,0
COc1ccc(C(=O)n2cnc3ccccc32)cc1OC,98,78,102,-8
Cc1ccc(NC(=O)c2cnc(N3CCCCC3)c3ccccc23)cc1Cl,94,96,102,/
Cc1ccc(C(=O)NCC(c2ccc(Cl)cc2)N2CCCCC2)cc1 (configuration not stated),104,80,103,-14
O=C(COc1ccccc1O)NCCN1CCOCC1,130,101,106,-12
Cc1ccc(CN2CCC(CNC(=O)Cn3c(=O)oc4ccccc43)CC2)cc1,98,98,95,1
Cc1ccc2nc(Cl)c3cc(C(=O)N4CCCCC4)sc3c2c1,100,85,106,-12
CCOCCCn1c(SCC(=O)OCC)nc2c(sc3ccccc32)c1=O,99,100,106,/
CCCCCNC(=O)c1sc(COc2cccc(C)c2)nc1C,/,/,108,-9
Cc1ccn2c(Nc3ccc4c(c3)OCO4)c(-c3ccc(C)o3)nc2c1,34,23,107,20
CN1C(=O)CC(C(=O)NCCc2ccccc2)SC1=Nc1ccc(I)cc1 (configuration not stated),98,89,96,/
COc1ccc(Cl)cc1NS(=O)(=O)c1c(C)nc2scc(C)n2c1=O,115,101,107,8
CC(C)C(=O)Nc1cccc(NC(=S)NC(=O)/C=C/c2ccco2)c1,121,89,158,-7
CSCc1ccc(C(=O)Nc2ccc(C)cc2O)cc1,98,80,97,/
CCOc1ccc(NC(=O)c2oc3ccc(CC)cc3c2C)c2cccnc12,/,/,100,-19
O=C(Cn1c(=O)c2cccn2c2ccc(F)cc21)Nc1cccc(F)c1,116,90,97,-2
N#Cc1ccc(C(=O)N(Cc2ccccc2)c2ccccn2)cc1,120,87,/,-25
Cc1ccc(CNC(=O)CSc2ncc(S(=O)(=O)c3ccc(Br)cc3)c(=O)[nH]2)cc1,84,88,107,18
NC1=NC(c2ccccc2)n2c(nc(=O)c3ccccc32)N1 (configuration not stated),95,79,104&96,-28&-5
CCCCN(CC)S(=O)(=O)c1ccc(C(=O)Nc2ccccc2-c2nc3ccccc3[nH]2)cc1,113,90,100,/

# Some of the entries above, set out differently.
structure	Sa growth inh	Sa growth inh second temp	GIV Gai3 FP	HCMV UL50-53 inh
CC(C)C(=O)Nc1cccc(NC(=S)NC(=O)/C=C/c2ccco2)c1	121	89	158	-7
Cc1ccc2nc(Cl)c3cc(C(=O)N4CCCCC4)sc3c2c1	100	85	106	-12
NC1=NC(c2ccccc2)n2c(nc(=O)c3ccccc32)N1 (configuration not stated)	95	79	104&96	-28&-5
CCCCN(CC)S(=O)(=O)c1ccc(C(=O)Nc2ccccc2-c2nc3ccccc3[nH]2)cc1	113	90	100	/
Cc1ccc(CN2CCC(CNC(=O)Cn3c(=O)oc4ccccc43)CC2)cc1	98	98	95	1
Cc1ccn2c(Nc3ccc4c(c3)OCO4)c(-c3ccc(C)o3)nc2c1	34	23	107	20

# More structures:
SMILES,Sa growth inh,Sa growth inh second temp,GIV Gai3 FP,HCMV UL50-53 inh
O=c1cnnc(NCCN2CCOCC2)[nH]1,91,90,97,-10
Cc1ccc2[nH]c(=O)c3cc(C(=O)N4CCC(Cc5ccccc5)CC4)sc3c2c1,/,/,103,-14
O=C(Cc1ccccc1)O/N=C/c1ccc2c(c1)OCO2,92,91,104,-20
O=C(NC(=O)N1CCOCC1)c1cc(Br)cc(Br)c1,90,87,101,-54
CCc1ccc(NS(=O)(=O)c2c(-c3ccccc3)csc2C(=O)OC)cc1,103,89,103,/
CC(C)NC(=O)C1CCC(Cn2c(=O)c3sccc3n(CC(=O)NCc3ccccc3)c2=O)CC1 (configuration not stated),71,92,102,/
CN(C)S(=O)(=O)c1ccc(C(=O)OCc2nc(-c3ccccc3)no2)cc1,102,98,/,-11
COc1ccc(/C=C/C(=O)N(C)c2ccccc2)cc1OC,106,82,/,-69
COc1cccc(NC(=O)C2CCCN(S(=O)(=O)c3cc(-c4noc(C)n4)sc3C)C2)c1 (configuration not stated),/,/,105,-8
Cc1cccc(C)c1NC(=O)CSc1nc2c(c(=O)[nH]1)CN(Cc1ccccc1)CC2,/,/,96,-19
Cc1ccc(Cn2c(=O)c3ccc(C(=O)NC(C)C)cc3n3c(=O)n(CC(=O)NC(C)(C)C)nc23)cc1,/,/,108,-43
Cc1nn(C)c2sc(C(=O)NN)cc12,83,73,101,-24
Cc1cccc(CNC(=O)C2CCCN(c3ccc4cc(S(=O)(=O)N5CCCC5)ccc4n3)C2)c1 (configuration not stated),/,/,110,-31
CCOC(=O)c1ccc(NC(=O)Cn2c(=O)cc(C)c3c(C)nn(-c4ccc(CC)cc4)c32)cc1,83,94,97,/
O=C(NCCCN1CCCCC1)C1CCCN(c2ccc(-c3ccc(F)cc3)nn2)C1 (configuration not stated),/,/,103,-32
CCOc1ccccc1CNC(=O)C1CCN(c2nnc(-n3c(C)ccc3C)s2)CC1,101,87,102,-4
N#Cc1ccccc1CSc1nnc2c(Cl)cc(Cl)cn12,80,91,/,-33
COc1ccc(-n2cc(C(=O)NCC3Cc4ccccc4O3)nn2)cc1 (configuration not stated),79,84,99,-19
Cc1cccn2cc(CNC(=O)CC(C)(C)C)nc12,101,87,104,-30
CCCN1CN=C(NS(=O)(=O)c2ccc(C)cc2)NC1,/,/,107,-11
Cc1ccc(/C=C/C(=O)N2CCN(c3cccc(C)c3C)CC2)cc1,116,93,108,0
Cc1nnsc1C(=O)Nc1ccccc1C(F)(F)F,110,99,106,2
COc1ccc(C(=O)NCc2ccc3c(c2)CCN3C(=O)c2ccccc2)cc1,101,78,100,/
Cc1ccc(C)c(Nc2c3c(nc4nc(C)nn24)CCCC3)c1,/,/,112,-21
CCn1c(C)c(C2=CCN(S(=O)(=O)c3cccc4nsnc34)CC2)c2ccccc21,110,99,105,-30
Cc1ccc(OCc2nnc(SCC(=O)NC3CCCCC3C)o2)cc1 (configuration not stated),92,85,107,2
COC(=O)c1c(C)[nH]c(C(=O)N2CCC(CC(=O)NCc3ccc4c(c3)OCO4)CC2)c1C,/,/,111,-7
CCOC(=O)c1c(C)[nH]c(C(=O)C(C)Sc2nncn2C(C)C)c1C (configuration not stated),108,101,/,-5
COc1ccc(-c2nc3scc(CCNC(=O)Cc4ccccc4)n3n2)cc1,115,106,108,15
O=C(N/N=C/c1ccco1)C12CC3CC(CC(C3)C1)C2,96,91,/,-2
CCOC(=O)c1ccc(NC(=O)CC2C(=O)N(c3ccc(F)cc3)C(=O)N2Cc2ccc3c(c2)OCO3)cc1 (configuration not stated),91,54,112,8
CCOc1ccc(N2CC(C(=O)NCc3nnnn3-c3ccc(C)c(C)c3)CC2=O)cc1 (configuration not stated),88,92,99,/
CNc1oc(-c2ccc(F)cc2)nc1S(=O)(=O)c1ccc(F)cc1,/,/,104,-12

# Part of the list above in order of length of the SMILES, low to high:
SMILES,Sa growth inh,Sa growth inh second temp,GIV Gai3 FP,HCMV UL50-53 inh
Cc1ccc(C)c(Nc2c3c(nc4nc(C)nn24)CCCC3)c1,/,/,112,-21
CCOc1ccc(N2CC(C(=O)NCc3nnnn3-c3ccc(C)c(C)c3)CC2=O)cc1 (configuration not stated),88,92,99,/
COC(=O)c1c(C)[nH]c(C(=O)N2CCC(CC(=O)NCc3ccc4c(c3)OCO4)CC2)c1C,/,/,111,-7

# High-throughput results: PubChem, ICCB-Longwood Screening Facility, Harvard Medical School
